From PubChem BioAssay
T cruzi repl – T. cruzi replication inhibition; T. cruzi beta-gal in NIH3T3, luminescence, 90 h; inhibition, % (no concentration beside the values); 300,000 compounds, 1.4% hits; AID 1885;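 active = mean inhibition across valid replicates above about 55%, limit read from the data; inconclusive = mean below that limit but half or more replicates reach it; inactive = mean below it, under half of replicates reach it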;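 note: signal also drops with host cell toxicity which is not excluded here; 0% = plate median of DMSO wells and 100% = zero luminescence signal; higher percent means less beta-gal luminescence so fewer parasites; stock transfer was 50 nL into about 50 µL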
ALR inh – blocks human ALR sulfhydryl oxidase activity; AID 485317; inhibition, % (test concentration not listed); P55789; purified ALR, DTT oxidation, H2O2 HRP-luminol luminescence; 290,000 compounds, 3.8% hits;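 active = mean and each replicate at 75% or more; inconclusive = only one of the two met; inactive = neither met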;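 note: stock transfer was 7.5 nL into about 7.5 µL; 0% = neutral wells and 100% = wells with inactivated enzyme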
Target sequence (P55789 whole entry, looked up): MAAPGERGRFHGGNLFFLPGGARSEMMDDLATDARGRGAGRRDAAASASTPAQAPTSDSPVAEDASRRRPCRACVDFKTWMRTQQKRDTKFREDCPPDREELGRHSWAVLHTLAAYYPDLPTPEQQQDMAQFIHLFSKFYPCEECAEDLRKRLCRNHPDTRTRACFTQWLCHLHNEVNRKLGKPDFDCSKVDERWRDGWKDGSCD
Calb FLC – C. albicans growth modulation with fluconazole. C. albicans CaCi-2 (fluconazole-resistant clinical isolate) + fluconazole, Alamar Blue growth, 48 h. growth inhibition, % (test concentration not listed). 300,000 compounds, 0.57% hits;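 active = most replicates above 75%; inconclusive = exactly half above 75%; inactive = most below 75%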;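 note: all wells also contain fluconazole at 8 µg/ml as a sub-toxic cotreatment; 0% = median of DMSO wells and 100% = median of geldanamycin control wells; wells of about 8 µL received 7.5 nL stock; the first replicate is given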
Beta apoptosis – blocks beta cell apoptosis; INS-1E cytokine-induced death, ATP luminescence, 48 h; percent of positive-control rescue, neutral wells zero; protection from apoptosis, % (test concentration not listed); 300,000 compounds, 0.8% hits; AID 435005;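 active = all replicates at 75% or more, or half of them and the mean; inconclusive = half reach 75% but not the mean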;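 note: 0% = cytokine-treated negative control wells and 100% = positive control rescue; higher means more ATP so stronger rescue from cytokine killing; wells of about 40 µL received 100 nL stock; the first replicate is given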
FGF22 binding – shifts melting point of recombinant human FGF22 | recombinant FGF22 thermal shift, SYPRO orange fluorescence; percent of sucrose octasulfate shift, DMSO zero | 340,000 compounds, 1.5% hits | Q9HCT0 | calls only at 9.99 µM;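 active = melting point raised past a set limit in the mean and every replicate; inconclusive = no clear call; three in four hits are not shown here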
Target sequence (Q9HCT0 whole entry, looked up): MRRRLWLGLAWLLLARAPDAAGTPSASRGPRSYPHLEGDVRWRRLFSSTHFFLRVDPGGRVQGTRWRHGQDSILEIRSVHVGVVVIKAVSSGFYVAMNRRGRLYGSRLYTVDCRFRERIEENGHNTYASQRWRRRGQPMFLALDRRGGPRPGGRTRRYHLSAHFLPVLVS
rRNA inh HTS – inhibits bacterial ribosomal RNA function over humanized ribosomes. E. coli WT GFP vs humanized-ribosome RFP mutants, fluorescence, 24 h; hits give low values; DMSO median 0, no signal -100. 350,000 compounds, 1.6% hits. GFP signal change (wild-type ribosome), % (concentration not given with the values);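 active = significant combined selectivity score with lowered wild-type GFP, culture density cut under 30%, mutant RFP and density less affected; inactive = any of these conditions unmet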; note: one replicate is shown; some compounds called inactive have numbers as strong as hits
MLL AF4-AF9 inh – blocks AF4 peptide binding to human AF9; P42568; AlphaScreen, biotin-AF4 peptide binding to FLAG-AF9; inhibition, % at 10 µM; 350,000 compounds, 0.47% hits;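 active = every replicate reaching a set inhibition limit, whatever the replicate mean, cut at about 25% in these data; inconclusive = mean inhibition reaches that limit but some replicates miss it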;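 note: 0% = plate neutral control median and 100% = total signal loss; the record names both 10 and 1 µM as test concentration; the first replicate is given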
Target sequence (P42568 whole entry, looked up): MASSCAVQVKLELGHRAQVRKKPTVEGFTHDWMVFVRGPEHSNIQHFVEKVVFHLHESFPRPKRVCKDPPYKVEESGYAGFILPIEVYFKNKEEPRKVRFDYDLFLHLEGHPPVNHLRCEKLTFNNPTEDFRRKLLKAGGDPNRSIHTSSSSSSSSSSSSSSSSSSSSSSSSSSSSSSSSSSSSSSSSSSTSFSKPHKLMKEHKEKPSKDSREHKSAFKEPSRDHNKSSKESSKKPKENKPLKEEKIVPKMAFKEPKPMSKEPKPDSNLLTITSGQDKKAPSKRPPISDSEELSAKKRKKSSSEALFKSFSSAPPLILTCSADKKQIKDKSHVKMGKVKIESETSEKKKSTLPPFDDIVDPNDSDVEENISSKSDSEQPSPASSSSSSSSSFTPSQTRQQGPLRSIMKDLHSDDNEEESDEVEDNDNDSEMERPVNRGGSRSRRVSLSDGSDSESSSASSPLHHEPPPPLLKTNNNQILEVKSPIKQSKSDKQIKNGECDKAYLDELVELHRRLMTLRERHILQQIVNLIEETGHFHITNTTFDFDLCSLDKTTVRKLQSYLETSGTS
RanGTP-Imp inh – disruptors of Ran-importin-beta complex formation – biochemical, FRET, CFP-Ran, YFP-importin-beta, homogeneous, primary screen. cell-free CFP-Ran/YFP-importin-beta FRET ratio. inhibition, % (no concentration beside the values). 300,000 compounds, 1.1% hits. AID 2216;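 active = most replicates above 15%; inconclusive = exactly half above 15%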;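 note: 0% = DMSO wells and 100% = Ran loaded with GDP instead of GTP; wells of about 40 µL received 100 nL stock; the first replicate is given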
rRNA inh HTS OD600 – also measured in rRNA inh HTS; calls as there; OD600 change, %; measured here: OD600 growth;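 optical density of the mix in the first replicate; 0 = DMSO median and -100 = no signal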
rRNA inh HTS RFP – also measured in rRNA inh HTS; calls as there; RFP signal change, %; measured here: RFP humanized mutant strains;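 first replicate; 0 = DMSO median and -100 = no signal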
* = called active by the depositor; i = inactive; ? = inconclusive; / = not tested or not shown; & = joins results of further samples. This is a subset, so the mix of outcomes need not match the whole.

SMILES	T cruzi repl	ALR inh	Calb FLC	Beta apoptosis	FGF22 binding	rRNA inh HTS	rRNA inh HTS OD600	rRNA inh HTS RFP	MLL AF4-AF9 inh	RanGTP-Imp inh
COc1ccc(NC(=O)Nc2ccc(O)c3ccccc23)cc1	13	26	-7	9	i	-25	-24	-6.0	-0.8	5.9
Cc1[nH]nc2c1C(c1ccccc1)C1=C(CC(C)(C)CC1=O)N2 (stereo not drawn)	10	/	0	-3	/	/	/	/	/	4.3
O=C1CCc2cc(S(=O)(=O)NC(Cc3ccccc3)C(=O)NC3CCCCC3)ccc2N1 (stereo not drawn)	3	8	-9	/	i	2	2	2.4	-5.4	-4.5
CCOC(=O)C(=CNNc1c(C)csc1C(=O)OC)C(=O)OCC	5	26	3	-2	i	-7	-5	4.1	/	-1.9
O=S(=O)(NCc1ccco1)c1ccc2c(c1)Cc1ccccc1-2	-40	22	6	-7	/	/	/	/	/	5.5
CCC(=O)N=c1sc2cc(F)cc(F)c2n1C	-29	-1	-7	0	i	6	13	-6.3	-8.7	1.0
CC(=O)c1cccc(NC(=O)NCc2ccc3c(c2)OCO3)c1	-2	-8	7	-1	i	12	3	-0.5	-0.7	5.7
CCc1ccc(OCC(=O)O/N=C(\N)c2ccccn2)cc1	1	/	6	/	i	-22*	5.0*	2.3*	-6.0	-2.4
CC(C)c1csc(CN2CCN(CCc3ccccc3)C(CCO)C2)n1 (stereo not drawn)	27	0	-24	-2	i	10	4	0.3	1.2	4.4
CC(NCC(O)COc1ccc(S(=O)(=O)N2CCOCC2)cc1)c1ccccc1 (stereo not drawn)	?	3	6	1	i	7	-6	-4.7	-1.1	3.5
Cc1ccnc(NC(=O)c2cccc(S(=O)(=O)Nc3ccc(C)cc3C)c2)c1	/	-3	/	-28	i	-34	-51	-0.4	6.4	/
CCOC(=O)c1cc(-c2ccccc2)sc1NC(=O)CCN1C(=O)c2ccccc2C1=O	7	/	-2	4	/	/	/	/	/	1.0
Cc1cccc(NC(=O)Cn2c(=O)n3nc(CCn4nc(C)cc4C)nc3c3ccccc32)c1	-7	-8	5	0	/	/	/	/	/	1.9
CCN(CC)CCN(Cc1cc2ccc(C)cc2[nH]c1=O)C(=O)NC1CCCCC1	9	-12	-4	5	i	2	1	2.6	-0.7	?
Cn1ncc([N+](=O)[O-])c1C(=O)Nc1cccc2ccccc12	-6	-10	-4	4	i	-18	-18	-1.8	-5.5	0.0
Cc1ccc(OCC(=O)NC2CCCC(C)C2C)c([N+](=O)[O-])n1 (stereo not drawn)	/	-14	/	-11	i	7	3	-1.0	-1.2	/
Cc1ccnc(NS(=O)(=O)c2cnc(Cl)c(Br)c2)c1	-5	-11	-3	1	/	/	/	/	/	4.8
COc1cc(S(=O)(=O)N2CCN(C)CC2)c(OC)cc1Cl	-8	-4	4	-4	/	/	/	/	/	-2.3
O=C(COC(=O)c1ccc(Cl)nc1)Nc1ccc2c(c1)OCCO2	/	-9	/	-4	i	10	13	-1.7	0.6	/
Cc1ccc(-c2nnnn2-c2ccccc2C(=O)O)cc1	-14	29	4	-4	i	/	/	/	-2.6	0.3
C(#Cc1ccccc1)CN1CCCCC1	-5	-3	-2	0	i	11	12	-0.5	-0.7	-1.5
CC(Oc1ccc(Cl)cc1Cl)C(=O)NCc1ccncc1 (stereo not drawn)	5	-7	-3	-7	/	/	/	/	/	-1.4
O=C(O)CC/C(=N/NC(=O)c1ccc(-c2ccccc2)cc1)c1ccccc1	2	66	0	1	i	-2	-1	-1.4	-1.6	1.8
Cc1cc(=O)[nH]c2nnc(-c3ccc(Br)cc3)n12	-8	-3	5	16	i	4	7	-1.0	-6.3	4.4
Cn1nc(-c2ccc3c(c2)OCCO3)c2ccccc2c1=O	-45	-2	2	/	i	2	4	-2.6	-1.2	-2.6
COc1ccc(C(=O)C(C)OC(=O)c2nc3nccc(C)n3n2)cc1 (stereo not drawn)	/	0	/	-2	i	/	/	/	-1.1	/
O=C(c1ccc(F)cc1)N1CCN(C(=O)c2cccnc2)CC1	-6	-5	-6	2	/	/	/	/	/	0.7
CC(=O)OCc1cc(-c2nc3ccccc3[nH]c2=O)nn1-c1ccc(Cl)cc1	4	-3	23	1	i	12	20	-0.5	-4.0	3.7
CC(C)CC1COC(=O)N1 (stereo not drawn)	-3	-4	-9	0	i	6	7	4.6	-0.4	-0.3
CCOc1ccc(NC(=O)CS(=O)CC(=O)Nc2cccnc2)cc1 (stereo not drawn)	-10	-3	-27	-3	i	12	15	-2.2	-2.3	2.8
CCOC(=O)c1c(C)n(C)c2cc(-c3ccc(C)cc3)c(O)cc12	2	-6	24	4	i	1	0	-2.4	2.6	-1.2
Cc1nc(-c2nc(C(=O)NNS(C)(=O)=O)cs2)cs1	-7	0	-7	-4	i	16	11	3.6	-1.8	1.0
COc1ccccc1CNC(=O)C(NS(=O)(=O)c1ccc2c(c1)oc(=O)n2C)C(C)C (stereo not drawn)	5	45	2	/	i	5	16	7.1	-4.0	-2.7
CC(C)=CC1C(C(=O)NCCc2ccccc2)C1(C)C (stereo not drawn)	3	-1	0	-3	i	-13	6	-1.1	/	-2.3
C=CCNC(=S)NCC=C	-8	-3	-12	-2	i	9	7	-2.5	-2.7	-0.5
CC(C)Cn1c(-c2cccc(S(=O)(=O)N3CCOCC3)c2)n[nH]c1=S	/	86*	/	-5	i	-2	1	-0.2	-4.0	/
CCOC(=O)c1sc(CS(=O)(=O)c2ccc(Cl)cc2)nc1C	-3	-12	0	1	i	10	-9	2.6	3.6	8.1
COc1ccc(C(=O)NCC(=O)NCC(=O)OCC(=O)C(C)(C)C)cc1	-1	-5	-2	7	/	/	/	/	/	-2.8
CCOC(=O)c1nnn(CC(=O)N2N=C(c3cccc4ccccc34)CC2c2ccccc2)c1C(=O)OCC (stereo not drawn)	12	4	22	17	/	/	/	/	/	-1.1
CSc1nc2cc3c(cc2n1C(=O)c1ccc(C)cc1)OCCO3	17	9	6	-2	/	/	/	/	/	-0.7
C[C@H]1CN([C@@H](C)CO)C(=O)c2cc(NC(=O)Cc3ccccc3)ccc2O[C@H]1CN(C)Cc1ccccc1	/	-2	/	3	i	1&5	-12&5	-1.1&-4.6	-1.2&-0.3	/
CCn1c(CSCc2ccc(F)cc2)nnc1SCC(=O)N1CCN(c2ccccc2)CC1	12	97*	21	0	/	/	/	/	/	4.7
CC(CN1CCOCC1)OC(=O)COc1ccc(F)cc1 (stereo not drawn)	4	-14	-2	5	/	/	/	/	/	-3.3
O=C(O)CCCNS(=O)(=O)Cc1ccccc1	-10	-13	-13	2	i	16	10	-0.9	-0.9	-0.6
O=C(COC(=O)c1cccc(O)c1)NCc1ccc2c(c1)OCO2	-13	9	-9	-5	i	-5	-3	1.9	3.1	-4.7
COc1ccc(N(C(=O)CNC(=O)c2cccs2)C(C(=O)NC2CCCC2)c2cccnc2)cc1 (stereo not drawn)	0	-8	28	-4	i	/	/	/	-0.5	?
Cc1ccc(-c2nc3c(c(=O)[nH]c(=O)n3Cc3ccccc3)n2C)s1	-10	3	-5	0	/	/	/	/	/	?
CC(C)CC(C(=O)NC(C)(C)C)N(CC1CCCO1)C(=O)c1snc(C(N)=O)c1N (stereo not drawn)	3	-11	-4	/	i	15	11	4.6	-0.4	-4.9
N#C/C(C(=O)NCc1ccccc1)=C1\SC(CCO)C(=O)N1c1ccccc1 (stereo not drawn)	-24	0	8	1	/	/	/	/	/	-0.8
CCc1ccc(/C=C2\SC(N3CCCC3)=NC2=O)cc1	22	-5	-5	-2	i	-15*	9.7*	-1.3*	-8.8	2.9
O=C(NCc1ccccn1)Nc1cccc([N+](=O)[O-])c1	3	3	-14	-7	i	8	2	-0.4	-3.7	?
O=C(O)CN1C(=O)/C(=C\c2ccccc2OCc2ccc(Cl)cc2)SC1=S	1	58	15	-4	i	-46	-66	-15	-2.8	6.1
COc1ccc(-c2cc3cc(OC)c(OC)cc3cn2)cc1	/	-8	/	-3	i	-2	6	-1.1	-3.2	/
COc1ccc(-c2c(C(=O)O)c(-c3ccccc3)cn2C)cc1	-17	34	-6	-8	i	8	8	0.4	-3.5	6.2
CC(=O)N(CCCN(C)C)Cc1ccccn1	7	/	3	-5	i	10	8	1.9	-0.5	-1.4
Cc1cc(C)c(NC(=O)c2ccc3c(c2)CCN3S(C)(=O)=O)c(C)c1	-9	-11	0	-5	i	6	-2	-3.8	-1.2	-2.2
COc1ccc(/C=N/NC(=O)CNC(=O)/C=C/c2ccco2)cc1OC	6	-1	-4	-8	i	18	11	3.9	-1.3	-1.2
Cn1c(=O)c2c(nc(SCC(=O)NCC3CCCO3)n2Cc2ccc(F)cc2)n(C)c1=O (stereo not drawn)	-1	/	6	2	i	6	-11	-1.6	-2.8	0.9
Cc1cc(Br)cc(/C=N/NC(=O)c2ccc3c(c2)OCO3)c1O	24	-1	47	88*	i	15	11	-0.1	0.4	7.5
CC[C@@]12C(=O)N(c3cccc(C)c3)C(=O)N1[C@H](c1ccc(Br)cc1)[C@@H]1C(=O)N(C(C)(C)C)C(=O)[C@@H]12	5	-1	17	1	i	5	-2	-3.8	-51	-0.5

(cont.)
SMILES	T cruzi repl	ALR inh	Calb FLC	Beta apoptosis	FGF22 binding	rRNA inh HTS	rRNA inh HTS OD600	rRNA inh HTS RFP	MLL AF4-AF9 inh	RanGTP-Imp inh
CCOc1ccc(N(C(=O)c2snc(C(N)=O)c2N)C(C(=O)NCC2CCCO2)c2ccc(C)o2)cc1 (stereo not drawn)	16	/	10	/	i	12	7	0.7	4.8	1.0
CCOc1ccc2nc(NC(=O)c3ccco3)sc2c1	-9	-8	?	27	i	2	-1	-1.5	2.0	3.0
C=CCc1ccccc1OCC(O)CNC (stereo not drawn)	1	-3	-15	-3	/	/	/	/	/	3.8
CCOC(=O)C1=C(C)NC(=O)NC1c1c(OCC(=O)N2CCCCC2)ccc2ccccc12 (stereo not drawn)	3	-47	6	1	/	/	/	/	/	3.6
CCOC(=O)N1CCN(C(=O)CCC(=O)N2CCOc3ccc(C)cc32)CC1	-5	-3	3	-4	/	/	/	/	/	2.7
CS(=O)(=O)N(CC(=O)NCc1ccco1)c1cccc([N+](=O)[O-])c1	-5	-4	2	2	i	10	4	-0.4	1.1	0.1
CC(C)NC(=O)[C@@H]1C[C@@]1(C)[C@@H](NC(=O)OCc1ccccc1)c1ccccc1	-20	7	-14	0	i	-2	0	2.8	/	2.4
N#CCCN1CCC(NC(=O)OCc2ccccc2)CCC1=O (stereo not drawn)	-3	2	-5	1	i	12	1	-5.9	-0.8	5.1
COCCN1C=C(C(=O)OC)C(c2cc3c(cc2Br)OCO3)C(C(=O)OC)=C1	-4	-3	-12	-1	/	/	/	/	/	?
COc1ccc(-c2cc(C(=O)NCC3CCCO3)c3cc(C(C)C)ccc3n2)cc1 (stereo not drawn)	8	/	-17	40	i	6	6	-0.5	6.0	?
